Six1-Eya2 inh = blocks human Six1 binding to Eya2. activity change, % (no concentration beside the values). 360,000 compounds, 0.56% hits. AlphaScreen GST-Six1/His-Eya2 binding, biochemical; active compounds read low; control for the full effect not named in the record; in the data active = activity change below about -65%; inconclusive = about -30% to -65%; inactive = above about -30%; also: % is scaled to controls: 0 for no effect and ±100 for the full control effect
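AlphaScreen with GST-Six1 and His-Eya2 (5X mix: 250 nM and 500 nM), glutathione donor and nickel acceptor beads; buffer 50 mM Tris pH 8.0, 300 mM NaCl, 1 mM TCEP; 1 h at 37 C in the dark.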
D2 ag = human D2 receptor agonism in beta-arrestin assay; AID 624465; activation, % (concentration not given with the values); DiscoveRx PathHunter D2 beta-arrestin, luminescence, 90 min; 100% = 57 uM dopamine signal; P14416; 360,000 compounds, 0.084% hits; in the data active = activation above about 40%; inconclusive = about 15% to 40%; inactive = below about 15%; also: the text of the record calls up to 30% inactive
Target sequence (P14416 whole entry, looked up): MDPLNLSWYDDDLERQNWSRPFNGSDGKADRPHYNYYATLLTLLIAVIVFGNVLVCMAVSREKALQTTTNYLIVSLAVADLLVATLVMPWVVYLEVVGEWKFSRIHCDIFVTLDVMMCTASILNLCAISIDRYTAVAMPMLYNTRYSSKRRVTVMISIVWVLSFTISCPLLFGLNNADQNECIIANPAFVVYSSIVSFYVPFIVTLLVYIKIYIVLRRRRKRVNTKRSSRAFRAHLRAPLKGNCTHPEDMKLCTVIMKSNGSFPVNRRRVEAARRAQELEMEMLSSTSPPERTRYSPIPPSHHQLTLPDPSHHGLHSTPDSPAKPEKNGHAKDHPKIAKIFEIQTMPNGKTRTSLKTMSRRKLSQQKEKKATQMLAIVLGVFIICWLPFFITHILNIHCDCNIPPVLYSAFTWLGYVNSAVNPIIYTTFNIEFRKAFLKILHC
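DiscoveRx PathHunter D2 beta-arrestin cells (2,100/well) attached overnight, then compound-stimulated 90 min at 37 C in HBSS/10 mM HEPES/0.1% Tween-20 buffer; beta-galactosidase complementation read by luminescence after 1 h at ambient temperature. Dopamine 57 uM final (EC100) as control.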
D2 PAM = positive allosteric modulators of human D2 dopamine receptor; potentiation, % (no concentration beside the values); DiscoveRx D2 beta-arrestin cells, luminescence, 90 min; 100% = 57 uM dopamine signal; AID 624464; 360,000 compounds, 0.23% hits; P14416; active = potentiation of 50% or more; inconclusive = 30% to 50%; inactive = 30% or less;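 also: compound concentration not given in the record; tested on top of an EC20 dose of dopamine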
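D2 cells co-treated with compound plus 50 nM dopamine (EC20) for 90 min at 37 deg C to detect potentiation. Beta-arrestin recruitment was read as enzyme-fragment luminescence after 1 h at ambient temperature. Full response was set by 57 uM dopamine.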
TRPML1 ag = human mucolipin-1 channel agonism. Q9GZU1. AID 624414. 410,000 compounds, 0.12% hits. TRPML1-expressing cells, Ca2+ dye fluorescence, FDSS; host cell line not named in the record; reference of the full effect not given here. activation, % (no concentration beside the values); in the data active = activation above about 50%; inconclusive = about 30% to 50%; inactive = below about 30%; also: 0% is about no effect; the text of the record puts the active cut at 80%
Target sequence (Q9GZU1 whole entry, looked up): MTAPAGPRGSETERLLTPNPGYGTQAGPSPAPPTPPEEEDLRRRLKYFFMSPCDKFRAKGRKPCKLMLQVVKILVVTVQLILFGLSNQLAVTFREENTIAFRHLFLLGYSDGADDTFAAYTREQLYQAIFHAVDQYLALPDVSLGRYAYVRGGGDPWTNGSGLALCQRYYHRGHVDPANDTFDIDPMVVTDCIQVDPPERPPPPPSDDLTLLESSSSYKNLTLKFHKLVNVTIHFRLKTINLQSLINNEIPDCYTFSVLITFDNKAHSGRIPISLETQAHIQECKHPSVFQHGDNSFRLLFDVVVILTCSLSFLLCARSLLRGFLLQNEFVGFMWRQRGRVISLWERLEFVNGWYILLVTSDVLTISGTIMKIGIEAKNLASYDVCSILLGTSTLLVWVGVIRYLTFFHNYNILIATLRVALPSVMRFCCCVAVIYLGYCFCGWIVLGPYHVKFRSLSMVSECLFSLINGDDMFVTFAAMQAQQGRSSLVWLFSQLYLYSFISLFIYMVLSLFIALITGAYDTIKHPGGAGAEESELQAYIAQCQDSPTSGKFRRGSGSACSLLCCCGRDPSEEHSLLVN
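Calcium fluorescence on an FDSS kinetic reader gave the read-out. Tet-induced TRPML1-DL cells were plated overnight, dye-loaded (Ca8 with quencher, 45-90 min, room temperature, dark), then read 110 s after compound addition, and again 110 s after 4uM final 54-4 (EC80).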
CtBP-E1A blk = CtBP/E1A binding inhibition; AlphaScreen GST-E1A/His-CtBP binding, 1536-well; active compounds read low; control for the full effect not named in the record; activity change, % (test concentration not listed); 340,000 compounds, 0.49% hits; in the data active means activity change below about -65%; inconclusive means about -30% to -65%; inactive means above about -30%; also: % is scaled to controls: 0 for no effect and ±100 for the full control effect
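In 5 uL wells, 23 nL compound meets equimolar GST-E1A and His-CtBP (5X stock 125 nM each) for 2 h, 37 °C. Beads (5X, 50 ug/mL) then 1 h, 37 °C, dark.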
PINK1 expr mod = modulators of PINK1 expression; PINK1 immunofluorescence, high-content cytometry, 24 h; Potency, µM (top dose mostly 76.6 µM), without a hit: top-dose activation (PINK1 increase), usual class: activators; 410,000 compounds, 0.2% hits; active = well fitted activation curve with a large enough effect; inconclusive = small, poorly fitted or top-dose-only effect; inactive = flat fitted curve, though single readings scatter; cell line not stated here;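 also: potency is read from the fitted curve at half-maximal effect; % of control where 0% means no effect; nearly all actives have a fitted effect of over 65% in size; a mitochondrial uncoupler was the plate control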
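Measures PINK1 amount and localization on or inside mitochondria by immunofluorescence. Stable cells get compounds at 5 concentrations for 24 hours before fixation and staining; CCCP controls included.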
An asterisk follows results filed as active; ? = inconclusive; / = no result given; & = joins results of further samples; [ ] = remark or other dose.

1: CCCc1cc(=O)n2c(nc3ccccc32)[nH]1
2: O=C(c1ccccc1)N(Cc1cccnc1)C1(C(=O)Nc2ccccc2)CCCCC1
3: CCC1CCCCN1CCCNC(=O)c1cn(CC)c2ccc(S(=O)(=O)N(C)C3CCCCC3)cc2c1=O (stereo not drawn)
4: O=C(NCCc1ccc(Cl)cc1)C1CCN(C(=O)N2CCOc3ccccc32)CC1
5: COCCCNC(=O)C[C@H]1C[C@H](C(=O)N2CCCCC2)[C@@]2(CCc3ccccc3)c3[nH]c4cc(CCC(=O)N(C)C)ccc4c3CCN2C1=O
6: COc1cccc(CN2CCC(Oc3ccc(C(=O)N4CCCCC4)cc3)CC2)c1O
7: N#CC1=C(N)Oc2cc(O)ccc2C1C1CCCCC1 (stereo not drawn)
8: Cc1cc(=O)n2[nH]c(-c3ccc(Cl)cc3)cc2n1

assay / entry,1,2,3,4,5,6,7,8
Six1-Eya2 inh,12.1,7.1,-5.4,-1.7,-2.7,-0.7,-17.0,-1.6
D2 ag,-3.1,-2.4,-4.4,0.8,0.6,-4.3,-1.8,-1.2
D2 PAM,-13.1,-3.5,-14.1,-8.4,-1.9,-10.6,-4.5,-27.4
TRPML1 ag,0.1,0.5,0.1&-1.0,0.7,1.2,0.9,-0.1,0.1
CtBP-E1A blk,-0.7,4.4,/,3.9,-19.7,9.5,-0.1,-10.4
PINK1 expr mod,-2.2%,-2.8%,0.1%&-0.4%,0.5%,1.9%,-0.3%,4.3%,-1.8%

9: CCOc1ccc(NC(=O)c2ccc(-n3cccn3)nc2)cc1
10: CCOc1ccc(S(=O)(=O)N(CC)CC(=O)N2CCCC2)cc1C
11: COc1ccc(N(CC(=O)N/N=C(\C)c2ccc(C)cc2)S(=O)(=O)c2ccccc2)cc1
12: CN(C)/C=C(/C#N)C(=O)c1cccc(Oc2ccc(C(C)(C)C)cc2)c1
13: Cc1sc2nc(CSC(C)C(=O)N(C)CC(=O)Nc3ccccc3C(F)(F)F)[nH]c(=O)c2c1C (stereo not drawn)
14: CCOC(=O)c1c(-c2ccccc2)oc2ccc(OC)cc12
15: CC1CCCC(NC(=O)COC(=O)CN2C(=O)C3CCCCC3C2=O)C1C (stereo not drawn)
16: CC1CN(CC(O)COC(c2ccc(Cl)cc2)c2ccc(Cl)cc2)CC(C)O1 (stereo not drawn)

assay / entry,9,10,11,12,13,14,15,16
Six1-Eya2 inh,-2.8,14.2,4.6,-14.5,1.2,44.5,1.2,3.3
D2 ag,-7.4,-2.8,2.5,1.5,-3.8,-4.6,-4.2,3.0
D2 PAM,-0.9,-1.6,-3.3,-2.6,-5.7,-15.9,1.7,-24.2
TRPML1 ag,1.0,-0.7,-0.6,2.2,-0.3,1.4,0.1,0.4
CtBP-E1A blk,10.4,7.6,10.7,-5.0,-2.0,38.0,9.7,15.2
PINK1 expr mod,-0.4%,-0.4%,9.5%,-0.3%,-0.7%,29.8%,-0.6%,1.3%

Results in sequence from the entries so far:
D2 ag, compounds 3 to 6, in order: -4.4, 0.8, 0.6, -4.3
CtBP-E1A blk, compounds 3 to 6, in order: /, 3.9, -19.7, 9.5
Six1-Eya2 inh, compounds 3 to 6, in order: -5.4, -1.7, -2.7, -0.7

New compounds follow:
17: N=C(c1cccc([N+](=O)[O-])c1)N1CCCCC1
18: CC(=O)c1cccc(NC(=O)C(C)OC(=O)C2=NNC(=O)CC2)c1 (stereo not drawn)
19: OCCC1CN(Cc2nc3ccccc3s2)CCN1CCc1ccccc1 (stereo not drawn)
20: Cc1cc(S(=O)(=O)NC[C@H]2O[C@@H](n3ccc(N)nc3=O)[C@H](O)[C@@H]2O)c(C)s1
21: Cc1ccc(S(=O)(=O)CC(C)N2CCN(C3CCCCC3)CC2)cc1 (stereo not drawn)
22: COc1cccc(C2C(C#N)=C(N)Oc3cc(C)n(Cc4ccccn4)c(=O)c32)c1OC (stereo not drawn)
23: Cc1ccc2nc(-c3ccc(C#N)cc3)c(Cc3ccccc3C(F)(F)F)n2c1
24: COc1ccc(/C=C(\C#N)C(=O)OCCNC(=O)c2ccncc2)cc1

assay / entry,17,18,19,20,21,22,23,24
Six1-Eya2 inh,5.8,0.4,17.3,6.9,0.8,12.2,-2.5,7.8
D2 ag,-0.2,-7.6,-4.3,-11.5,-3.1,2.4,-6.5,2.0
D2 PAM,-5.6,-32.9,-5.7,-5.4,-10.5,-0.9,-8.8,1.7
TRPML1 ag,0.8,1.5,0.4,0.3,-0.2,0.1,1.4,-0.5
CtBP-E1A blk,14.9,-0.9,-1.1,-10.6,4.0,4.3,-1.1,0.0
PINK1 expr mod,1.2%,-1.0%,-0.9%,-0.7%,5.4%[38.3 µM],13.3%,?,-0.1%

4 entries from above, ordered by the number in PINK1 expr mod, ascending.
| nr | canonical_smiles | Six1-Eya2 inh | D2 ag | D2 PAM | CtBP-E1A blk | PINK1 expr mod |
| --- | --- | --- | --- | --- | --- | --- |
| 19 | OCCC1CN(Cc2nc3ccccc3s2)CCN1CCc1ccccc1 (stereo not drawn) | 17.3 | -4.3 | -5.7 | -1.1 | -0.9% |
| 20 | Cc1cc(S(=O)(=O)NC[C@H]2O[C@@H](n3ccc(N)nc3=O)[C@H](O)[C@@H]2O)c(C)s1 | 6.9 | -11.5 | -5.4 | -10.6 | -0.7% |
| 17 | N=C(c1cccc([N+](=O)[O-])c1)N1CCCCC1 | 5.8 | -0.2 | -5.6 | 14.9 | 1.2% |
| 22 | COc1cccc(C2C(C#N)=C(N)Oc3cc(C)n(Cc4ccccn4)c(=O)c32)c1OC (stereo not drawn) | 12.2 | 2.4 | -0.9 | 4.3 | 13.3% |

Arranged by heavy-atom count (ascending): three of the compounds above.
21: Cc1ccc(S(=O)(=O)CC(C)N2CCN(C3CCCCC3)CC2)cc1 (stereo not drawn)
24: COc1ccc(/C=C(\C#N)C(=O)OCCNC(=O)c2ccncc2)cc1
23: Cc1ccc2nc(-c3ccc(C#N)cc3)c(Cc3ccccc3C(F)(F)F)n2c1

assay / entry,21,24,23
Six1-Eya2 inh,0.8,7.8,-2.5
D2 ag,-3.1,2.0,-6.5
D2 PAM,-10.5,1.7,-8.8
TRPML1 ag,-0.2,-0.5,1.4
CtBP-E1A blk,4.0,0.0,-1.1
PINK1 expr mod,5.4%[38.3 µM],-0.1%,?

Continued.
25: CN(C(=O)Nc1ccccc1)C1CCCc2ccccc21 (stereo not drawn)
26: Fc1cccc(Cc2c(-c3cccc(Cl)c3)nc3ccc(Br)cn23)c1
27: CNC(=O)CSc1nc2nn(-c3ccccc3)c(=O)c-2c2n1CCCCC2
28: O=c1[nH]c(N2CCCCC2)nc2c1CCCC2
29: Cc1cccc(N2CCN(C(=O)NCc3ccc(F)cc3)CC2)c1C
30: CSCC[C@@H](C(=O)NCCCCCCCCCCC(=O)N1CCN(C(=O)OC(C)(C)C)CC1)n1cc(CCO)nn1
31: COc1ccccc1-c1ccc([C@@H]2C[C@H]3[C@H](CON3C)CN2C(=O)c2ccc(-c3ccccc3)cc2)cc1
32: C/C(=N\NC(=O)CNC(=O)c1cccc(F)c1)c1ccc2ccccc2c1

assay / entry,25,26,27,28,29,30,31,32
Six1-Eya2 inh,-1.1,0.7,5.4,-3.7,1.8,0.3,-13.5,9.7
D2 ag,-4.8,3.4,-0.5,-2.3,-1.9,3.6,-11.0,-2.8
D2 PAM,-4.1,4.0,-11.8,-11.6,-4.8,2.2,-3.5,-6.0
TRPML1 ag,-0.1,1.5,-0.6,4.3,-1.9,-0.5,1.0,1.3
CtBP-E1A blk,0.5,6.7,4.5,-4.9,12.0,-3.0,-21.2,-11.0
PINK1 expr mod,0.0%,21.9%,12.6%[38.3 µM],-0.7%,1.9%,-0.5%,1.4%,9.7%

33: O=c1cc(C(F)(F)F)nc(-c2cccnc2)[nH]1
34: COC(=O)c1cc(NC(=S)N2CCN(c3ccccn3)CC2)cc(C(=O)OC)c1
35: Cc1nn(C)c(C)c1CN(C)C(=O)c1cnn2c1NC(c1ccccc1)CC2C(F)(F)F (stereo not drawn)
36: CC(=O)Oc1ccc(C(=O)Nc2ccccc2C(=O)NCC(C)C)cc1
37: CN(c1ccccc1)S(=O)(=O)c1ccc(C(=O)N2CCCC2)cc1
38: c1ccc(C(c2ccccc2)N2CCN(Cc3nnnn3C3CCCC3)CC2)cc1
39: CC[C@H](C)[C@@H](CNC)NC[C@@H](Cc1ccc(O)cc1)NCC(C)(C)C
40: COC(=O)C1=C(C)N(c2ccc(F)cc2)/C(=C/c2ccc(O)cc2)C1=O

assay / entry,33,34,35,36,37,38,39,40
Six1-Eya2 inh,-3.5,-3.3,0.2,4.2,2.2,-12.4,-0.4,-3.0
D2 ag,-2.6,-0.2,-2.0,3.5,-0.2,-5.5,-1.2,2.0
D2 PAM,-6.3,-5.6,-7.3,4.8,-25.6,-12.9,-7.9,-22.7
TRPML1 ag,-0.7,0.2,1.0,1.6,-0.3,-0.8,-0.5,0.4
CtBP-E1A blk,3.9,6.5,-7.2,-8.2,9.3,-8.4,-0.8,5.0
PINK1 expr mod,1.1%,3.1%,-2.3%[38.3 µM],0.3%,0.8%,6.7%,0.3%,16.8%

41: Cc1ccc(C)c(NC(=O)C2CCN(S(=O)(=O)c3ccc4c(c3)NC(=O)CO4)CC2)c1
42: CC(C)C[C@@H](CNCC(=O)[C@H](CC(C)C)NC(=O)c1[nH]cnc1C(=O)N[C@@H](C)CN)NC(=O)c1nc[nH]c1C(=O)N[C@@H](C)C(=O)O
43: COc1cccc(C(=O)Nc2sc3c(c2C(=O)O)CCCC3)c1
44: Cc1ccc2sc(NC(=O)C3CC3)nc2c1C
45: COc1cccc2sc(/N=C/N(C)C)nc12
46: COC(=O)C1=C(C(=O)OC)[C@@H]2N(C)c3ccccc3[C@@]23C[C@@H](C(=O)OC)N(C(=O)c2ccc(Br)cc2)C3=N1
47: FC(F)(F)c1cc(-c2ccco2)nc(NCc2cccnc2)n1
48: Cc1cc(NC(=O)c2cc(-c3cccs3)on2)no1

assay / entry,41,42,43,44,45,46,47,48
Six1-Eya2 inh,-0.2,-0.7,-14.9,3.0,-1.6,-6.3,7.6,1.7
D2 ag,-2.2,-2.3,3.4,-0.7,-0.1,0.1,-1.7,-2.0
D2 PAM,-33.7,-9.2,-5.7,-8.4,-0.4,-0.1,-0.7,-2.1
TRPML1 ag,0.4,-0.2,-1.6,1.1,0.2,1.3,0.2,0.1
CtBP-E1A blk,-6.8,4.3,-0.1,/,-6.4,-7.4,-3.6,11.2
PINK1 expr mod,0.3%,4.1%,-0.8%,1.0%,-1.7%,?,1.8%,5.4%[38.3 µM]

49: Cc1ccc(NC(=O)C2CCCN2C(=O)NCc2ccccc2)cc1 (stereo not drawn)
50: Cc1cc(C(=O)CSc2nnc(-c3ccccc3)n2-c2ccccc2)c(C)n1-c1ncn[nH]1
51: O=C(O)c1cscc1Cc1cccs1
52: O=C1NC[C@@H](CCCCN2CCN(CCC3CCCCC3)C(=O)C2=O)N(CCC2CCCCC2)C1=O

assay / entry,49,50,51,52
Six1-Eya2 inh,-13.6,-25.1,-11.5,7.4
D2 ag,-1.9,11.7,-5.8,/
D2 PAM,-4.7,21.8,-3.6,/
TRPML1 ag,-0.7,2.6,-0.5,-0.9
CtBP-E1A blk,3.6,-24.7,4.0,4.8
PINK1 expr mod,0.6%,2.0%,1.3%,0.9%

Assay outcomes: PubChem, National Center for Advancing Translational Sciences (NCATS)
